Screens deposited in PubChem by Broad Institute.
ID4 SMM: binds human ID4 protein on microarray; small molecule microarray, Flag-ID4 binding, fluorescence F/B; 31,000 compounds, 1.2% hits; AID 624137; calls only; P47928;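 active = spot signal over background at p below 0.07 in all four prints; compounds were printed on slides so no solution concentration is given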;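 also: a binder raises fluorescence above local background on the spot; about 2 pmol printed per array spot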
Target sequence (P47928 whole entry, looked up): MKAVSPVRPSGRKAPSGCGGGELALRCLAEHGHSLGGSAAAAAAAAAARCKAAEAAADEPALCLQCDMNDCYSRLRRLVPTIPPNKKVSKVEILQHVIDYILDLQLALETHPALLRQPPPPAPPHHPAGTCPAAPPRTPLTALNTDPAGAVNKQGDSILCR
Calls only; i = inactive; + = active, no number.

structure	ID4 SMM
C[C@H](CO)N1C[C@H](C)[C@H](CN(C)S(=O)(=O)c2ccc(F)cc2)Oc2cc(-c3cccc(F)c3)ccc2S1(=O)=O	i
CC1(C)CC(=O)C2=C(C1)c1c(ccc3ncccc13)NC2C1CC=CCC1 (centres undefined)	i
CCCC#Cc1cnc2c(c1)C(=O)N([C@@H](C)CO)C[C@H](C)[C@@H](CN(C)C(=O)c1ccc(F)cc1)O2	i
COCC#Cc1ccc2c(c1)O[C@@H](CN(C)C(=O)CN(C)C)[C@@H](C)CN([C@H](C)CO)S2(=O)=O	i
O=C(NCC1CCCO1)c1ccc(Cl)c(S(=O)(=O)Nc2ccccc2)c1 (centres undefined)	i
O=C(O)COc1ccc(Cl)cc1C1C2=C(CCCC2=O)NC2=C1C(=O)CCC2	i
O=C1C(=O)N(CCCN2CCOCC2)C(c2ccc(F)cc2)C1C(=O)c1cc2ccccc2o1 (centres undefined)	i
N#Cc1ccc(Oc2ccc(C(=O)OCc3cccc(C(=O)c4ccccc4)c3)cc2)cc1C#N	i
COc1ccc(C(C)=O)cc1CSc1nnc(-c2cccc(Br)c2)n1-c1ccccc1	i
COc1ccccc1NC(=O)CN(c1ccccc1)S(C)(=O)=O	i
C[C@@H]1CN([C@H](C)CO)C(=O)c2cc(C#CCc3ccccc3)cnc2O[C@@H]1CN(C)Cc1ccccn1	i
COc1ccc(C(=O)CSc2nc3cc(C)c(C)cc3[nH]2)cc1OC	i

Overlap with the part before: two entries, followed by the next part.
structure	ID4 SMM
C[C@@H]1CN([C@H](C)CO)C(=O)c2cc(C#CCc3ccccc3)cnc2O[C@@H]1CN(C)Cc1ccccn1	i
COc1ccc(C(=O)CSc2nc3cc(C)c(C)cc3[nH]2)cc1OC	i
CN(CC(=O)Nc1ccncc1)S(=O)(=O)c1ccc(Cl)cc1	i
Cc1cc(-c2noc(-c3snnc3C)n2)no1	i
O=C(CCc1nc(-c2ccccc2F)no1)Nc1cccnc1	i
CC(C(=O)Nc1cccnc1)N(c1ccc(Cl)cc1)S(C)(=O)=O (centres undefined)	i
Cc1ccc(OC(=O)N(C)C[C@@H]2OCc3ccccc3-c3ccccc3C(=O)N([C@H](C)CO)C[C@@H]2C)cc1	i
O=C(C[C@H]1CC[C@H](NC(=O)C2CCOCC2)[C@H](CO)O1)NCC1CCCCC1	i
CCOC(=O)c1ccc(NC(=O)Cn2nc([N+](=O)[O-])c(Br)c2C)cc1	i
O=C(N[C@H]1CC[C@H](CC(=O)N2CCc3ccccc3C2)O[C@@H]1CO)C1CC1	i
CCC(=O)N(C)C[C@@H]1Oc2ncc(-c3ccccc3F)cc2C(=O)N([C@H](C)CO)C[C@H]1C	i
COc1ccc(OC)c(NC(=O)COc2ccc3c4c(c(=O)oc3c2C)CCC4)c1	i
C[C@H]1CN([C@@H](C)CO)S(=O)(=O)c2ccc(C#Cc3cccc(F)c3)cc2O[C@H]1CN(C)C(=O)CN1CCOCC1	i
CCCN(C)C[C@H]1Oc2ncc(C#CC3CCCCC3)cc2C(=O)N([C@H](C)CO)C[C@@H]1C	i
Cc1ccc(-c2csc3ncn(CC(=O)Nc4cc(Cl)ccc4Cl)c(=O)c23)cc1	i
C[C@H](CO)N1C[C@H](C)[C@@H](CN(C)S(C)(=O)=O)Oc2cc(-c3ccccc3F)ccc2S1(=O)=O	i
CCC(=O)N[C@@H]1C=C[C@@H](CC(=O)NCc2cc(F)cc(F)c2)O[C@H]1CO	i
O=C(C[C@@H]1C=C[C@H](NC(=O)c2ccccn2)[C@@H](CO)O1)NCc1cc(F)cc(F)c1	i
O=C(C[C@H]1C[C@H]2c3cc(NC(=O)c4cccnc4)ccc3O[C@H]2[C@H](CO)O1)NCCN1CCCCC1	i
Cc1cc(C(F)(F)F)nc(SCC(=O)Nc2cccc(Cl)c2Cl)n1	i
C[C@@H]1CN([C@H](C)CO)C(=O)c2cc(/C=C/c3ccccc3)cnc2O[C@H]1CN(C)Cc1cccnc1	i
Cc1ccc(NC(=O)COc2ccc(C(=O)Nc3cccc(C)c3C)cc2)cc1	i
CC(C(=O)Nc1cccc(C(F)(F)F)c1)N(c1ccc(Cl)cc1)S(C)(=O)=O (centres undefined)	i
O=[N+]([O-])c1cc(C(F)(F)F)ccc1NCCNS(=O)(=O)c1ccc2ccccc2c1	i
COc1ccc(Cl)cc1S(=O)(=O)Nc1ccc(Cl)cn1	i
CSc1nc(C)cc(SCC(=O)Nc2ccccc2)n1	i

Laid out differently: results already given
C[C@H](CO)N1C[C@H](C)[C@@H](CN(C)S(C)(=O)=O)Oc2cc(-c3ccccc3F)ccc2S1(=O)=O
- ID4 SMM: i

CCC(=O)N[C@@H]1C=C[C@@H](CC(=O)NCc2cc(F)cc(F)c2)O[C@H]1CO
- ID4 SMM: i

The list goes on.
structure	ID4 SMM
C[C@H](CO)N1C[C@H](C)[C@@H](CN(C)C(=O)C2CC2)Oc2ncc(-c3ccccc3F)cc2C1=O	i
CCC(=O)N[C@@H]1C=C[C@@H](CC(=O)NCc2ccccc2OC)O[C@H]1CO	i
COc1ccccc1NC(=O)CSc1nnc(-c2ccccc2)n1-c1cccc(C)c1	i
O=C(N[C@@H](CO)[C@H](O)c1ccc([N+](=O)[O-])cc1)C(Cl)Cl	i
COc1ccc(OC)c(NC(=O)COc2ccc(C(=O)Nc3ccc(Cl)cc3)cc2)c1	i
Cc1ccc(N(CC(O)Cn2c3ccccc3c3ccccc32)S(C)(=O)=O)c(C)c1 (centres undefined)	i
CC(C)CC#Cc1cnc2c(c1)C(=O)N([C@H](C)CO)C[C@H](C)[C@H](CN(C)Cc1cncnc1)O2	i
COc1cccc(C#Cc2ccc3c(c2)O[C@@H](CN(C)C)[C@@H](C)CN([C@@H](C)CO)S3(=O)=O)c1	i
C[C@@H]1CN([C@@H](C)CO)C(=O)c2cc(C#CC3(O)CCCC3)cnc2O[C@@H]1CN(C)Cc1ccccc1	i
COc1ccc(-c2cnc3c(c2)C(=O)N([C@@H](C)CO)C[C@H](C)[C@H](CN(C)S(C)(=O)=O)O3)cc1	i
CN(C)C(=O)C[C@@H]1C=C[C@H](NC(=O)c2ccc(F)cc2)[C@H](CO)O1	i
Cc1nc2ccccc2n1CC(O)COc1ccc(C(C)C)cc1 (centres undefined)	i
C[C@H]1CN([C@@H](C)CO)C(=O)c2cc(N(C)C)ccc2O[C@H]1CN(C)C(=O)Nc1ccccc1	i
O=C(CSc1n[nH]c(-c2ccc(Cl)cc2Cl)n1)N1CCc2ccccc21	i
CC(C)CC#Cc1cnc2c(c1)C(=O)N([C@@H](C)CO)C[C@@H](C)[C@@H](CN(C)Cc1ccccc1C(=O)O)O2	i
C[C@H]1CN([C@@H](C)CO)C(=O)c2cc(C3=CCCCC3)cnc2O[C@@H]1CN(C)Cc1ccccc1	i
COC(=O)CNC(=O)c1cn(-c2ccccc2)nc1-c1ccc(F)cc1	i
COc1ccc(OC)c(NC(=O)Cc2coc3cc(C)cc(C)c23)c1	i
C[C@H]1CN([C@@H](C)CO)C(=O)c2cc(C#Cc3ccccn3)cnc2O[C@H]1CN(C)CC1CCOCC1	i
C[C@H](CO)N1C[C@H](C)[C@H](CN(C)CC2CC2)Oc2cc(Br)ccc2S1(=O)=O	i
CCOc1ccc(N2C(=O)/C(=C/c3ccc(F)cc3)N=C2SC(CC)C(=O)N2CCOCC2)cc1 (centres undefined)	i
O=C(NCCc1nc2ccccc2[nH]1)c1cccc(Cl)c1	i
O=C(C[C@H]1C=C[C@@H](NS(=O)(=O)c2ccc(F)cc2)[C@@H](CO)O1)NCc1ccncn1	i
COc1ccc(Cl)cc1NC(=O)CN(c1cccc(F)c1)S(C)(=O)=O	i

Additional structures follow:
Molecule | ID4 SMM
COc1cccc(C2CC(C(F)(F)F)n3ncc(C(=O)NCc4ccco4)c3N2)c1 (centres undefined) | i
Cn1c(=O)[nH]c2ncn(C)c2c1=O | i
COc1ccccc1NC(=O)CSc1n[nH]c(C)n1 | i
CC(C)NC(=O)N[C@@H]1CC[C@@H](CC(=O)NCCCN(C)C)O[C@H]1CO | i
Cc1ccc(-n2c(SCC(=O)Nc3ccccc3C)nc3nc4c(cc3c2=O)COC(C)(C)C4)cc1 | i
C[C@H](CO)N1C[C@H](C)[C@@H](CN(C)C(=O)C2CCCCC2)Oc2ncc(C#CC3CC3)cc2C1=O | i
CCNC(=O)C[C@H]1CC[C@@H](NC(=O)C2CCC2)[C@H](CO)O1 | i
COc1ccccc1S(=O)(=O)N(C)C[C@@H]1Oc2cc(C#CCC(C)C)ccc2S(=O)(=O)N([C@@H](C)CO)C[C@H]1C | i
O=C1N(Cc2ccccc2)Cc2ccccc2C[C@]12N=C(c1ccc(OCCCO)cc1)O[C@@H]2c1ccccc1 | i
CN(C)c1ccc2c(c1)[C@H]1C[C@H](CC(=O)NCc3ccc(-c4ccccc4)cc3)O[C@@H](CO)[C@H]1O2 | i
COc1cccc(C#Cc2cnc3c(c2)C(=O)N([C@@H](C)CO)C[C@@H](C)[C@@H](CN(C)C(=O)C2CCCCC2)O3)c1 | i
COC(=O)c1cc(C(=O)NCc2ccccc2OC)cc([N+](=O)[O-])c1 | i
CC(C)COC(=O)N(C)C[C@H]1OCc2ccccc2-c2ccccc2C(=O)N([C@H](C)CO)C[C@H]1C | i
Cc1cccc(NC(=O)CN(c2cc(Cl)c(Cl)cc2Cl)S(C)(=O)=O)c1 | i
C[C@@H]1CN([C@@H](C)CO)C(=O)c2c(c3ccccc3n2C)-c2ccccc2CO[C@@H]1CN(C)C | i
O=C(C[C@@H]1CC[C@H](NC(=O)C2CCC2)[C@@H](CO)O1)NC1CCCCC1 | i
COC(=O)c1cc(OC)c(OC)cc1NC(=O)COc1cc(C)c(Br)cc1C | i
CCn1cnc2cc(NCc3cccc(OC)c3O)ccc21 | i
O=C(O)/C(=C/C(=O)c1ccc(F)cc1)Nc1ccc2[nH]c(=O)[nH]c2c1 | i
CS(=O)(=O)N(CC(=O)Nc1ccc(Br)c(Cl)c1)c1cc(Cl)ccc1Cl | i
CCCC#Cc1cnc2c(c1)C(=O)N([C@@H](C)CO)C[C@@H](C)[C@@H](CN(C)Cc1ccccc1F)O2 | i
CCCC#Cc1cnc2c(c1)C(=O)N([C@@H](C)CO)C[C@@H](C)[C@@H](CN(C)Cc1ccncc1)O2 | i
CCOC(=O)Cc1cc(C(=O)c2ccc(OC)cc2)sc1-c1ccc(OC)cc1 | i
Cc1ccc(OCC(=O)Nc2ccc3oc(-c4ccc(F)cc4)nc3c2)cc1C | i
C=CCNC(=O)[C@H]1[C@@H]2C(=O)O[C@@H](c3ccccc3)[C@@H](c3ccccc3)N2[C@@H](c2ccccc2OCCO)[C@]12C(=O)N(C(=O)OCCOC)c1ccc(C#CC3=CCCCC3)cc12 | i
CCC(=O)N[C@@H]1C=C[C@@H](CC(=O)NCc2cc(F)cc(F)c2)O[C@@H]1CO | i
COc1cc(CO)cc(I)c1OCc1cccc(C(=O)O)c1 | i
C/C=C/c1ccc([C@H]2[C@@H](CO)N(C(=O)Cc3ccccn3)[C@H]2C#N)cc1 | i
CCCCn1c(SCC(=O)O)nc2ccccc21 | i
Cc1ccc(OCC(=O)Nc2cccc(C(=O)O)c2C)cc1 | i
CC1(C)NC(=O)N(CC(=O)Nc2ccc(Br)cc2)C1=O | i
Cc1cccc(OCC(=O)Nc2ccc3c(c2)nc(CN2CCCCC2)n3C)c1 | i
C[C@@H]1CN([C@H](C)CO)C(=O)c2cc(C3=CCCCC3)cnc2O[C@H]1CN(C)Cc1ccccn1 | i
CCC(=O)N(C)C[C@@H]1Oc2cc(-c3cccc(OC)c3)ccc2S(=O)(=O)N([C@@H](C)CO)C[C@@H]1C | +
O=C(CSc1nc2nc3c(cc2c(=O)n1-c1ccccc1)CCCC3)Nc1ccc(Cl)cc1 | i
CCC(=O)N(C)C[C@H]1Oc2cc(C#Cc3ccncc3)ccc2S(=O)(=O)N([C@H](C)CO)C[C@H]1C | i
COc1ccc(C(=O)C(C)Oc2cccc(NC(=O)c3ccccc3[N+](=O)[O-])c2)cc1 (centres undefined) | i
CCCN(C)C[C@H]1Oc2ncc(-c3cccc(C#N)c3)cc2C(=O)N([C@@H](C)CO)C[C@H]1C | i
O=C(CN1CCN(S(=O)(=O)c2cccc([N+](=O)[O-])c2)CC1)Nc1cc(Cl)ccc1Cl | i
O=C(CSc1nc2ccccc2o1)c1cc2ccccc2oc1=O | i
COCC(=O)N(C)C[C@H]1Oc2cc(-c3cccc(F)c3)ccc2S(=O)(=O)N([C@@H](C)CO)C[C@@H]1C | i
COc1ccc(NC(=O)N[C@H]2CC[C@H](CC(=O)NCc3ccccn3)O[C@H]2CO)cc1 | i
C/C=C/c1ccc2c(c1)O[C@@H](CN(C)Cc1ccc(F)cc1)[C@@H](C)CN([C@H](C)CO)S2(=O)=O | i
COc1cccc(CNC(=O)C[C@H]2C=C[C@@H](NC(C)=O)[C@H](CO)O2)c1 | i
O=C(CN1C(=O)c2ccccc2S1(=O)=O)Nc1cccc(O)c1 | i
Cc1cc(C)c(C)c(OCC(=O)NCc2ccco2)c1 | i
CCCC#Cc1cnc2c(c1)C(=O)N([C@H](C)CO)C[C@@H](C)[C@H](CN(C)CCC)O2 | i
COc1ccccc1S(=O)(=O)N[C@H]1CC[C@@H](CC(=O)N2CCCCC2)O[C@@H]1CO | i

Quoted at random: two entries already listed.
Molecule | ID4 SMM
C[C@H](CO)N1C[C@H](C)[C@@H](CN(C)C(=O)C2CCCCC2)Oc2ncc(C#CC3CC3)cc2C1=O | i
COc1ccc(NC(=O)N[C@H]2CC[C@H](CC(=O)NCc3ccccn3)O[C@H]2CO)cc1 | i

Ordered by SMILES length (lowest first): part of the list above.
Molecule | ID4 SMM
Cc1ccc(-c2csc3ncn(CC(=O)Nc4cc(Cl)ccc4Cl)c(=O)c23)cc1 | i
O=C(N[C@H]1CC[C@H](CC(=O)N2CCc3ccccc3C2)O[C@@H]1CO)C1CC1 | i
COc1ccccc1S(=O)(=O)N[C@H]1CC[C@@H](CC(=O)N2CCCCC2)O[C@@H]1CO | i
CCCC#Cc1cnc2c(c1)C(=O)N([C@H](C)CO)C[C@@H](C)[C@H](CN(C)CCC)O2 | i

An excerpt; the hit share may differ from the screen's.
